Source: PubChem BioAssay
Sa RN4220 lethal: growth inhibition of S. aureus RN4220, primary screen, OD600 | AID 1259311, 2017 | inhibition, % (test concentration not listed) | 0.33% of 330,000 active | 16 h;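 active means z-score of -3 or lower and OD600 up to 0.18 on both plates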;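 further: plate controls were untreated cells for no effect and reference antibiotic for full effect; stock transfer was 100 nL into about 80 µL; one replicate is shown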
PrP UTR inh: inhibition of PrP 5' UTR reporter expression; cell-based PrP 5' UTR mRNA reporter, plate reader; inhibition, % (no concentration beside the values); 0.35% of 340,000 active;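 active means every replicate at 50% or more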;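 further: 0 = median of the neutral control wells; tested in H4 reporter cells; numbers are from one replicate; inactives centre near -14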
BJeLR viability: MLPCN primary cell-based screen for lethality selective to Ras in HRASV12 cells | BJeLR (HRASV12) viability, CellTiter-Glo ATP luminescence, 48 h; reference of the scale not given here | inhibition, % (test concentration not listed) | 0.17% of 300,000 active;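 active means replicate mean above 50%; inconclusive means above 50% but judged a plate artefact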;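 further: 50 nL library stock added to about 25 µL; numbers are from one replicate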
Mtb hypoxia rep: PubChem AID 1159583. M. tuberculosis hypoxia-regulated fluorescent reporter, fluorescence. fluorescence inhibition, % (no concentration beside the values). 0.1% of 300,000 active;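 active means 35 to 45% if threefold the growth effect, above 45% if 1.5-fold the growth effect; inactive means the rest, general growth blockers included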;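 further: wells of about 50 µL received 100 nL stock; 0% = vehicle wells and 100% = reference inhibitor wells; whole bacteria with a GFP reporter of the hypoxia response; strong numbers were not always called active; many hits fall short of the cut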
ugtP null kill: growth inhibition of ugtP-null S. aureus, primary screen, RN4220 ugtP deletion, OD600; 0.54% of 330,000 active; 16 h; some inactives read as strong as hits; growth inhibition, % (concentration not given with the values); AID 1259309, 2017;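 active means z-score under -3 and OD600 up to 0.15 on both plates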;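 further: plate controls were untreated wells for no effect and antibiotic for full effect; wells of about 80 µL received 100 nL stock; the first replicate is given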
Autofluor counter: counter-screen for toxin protease inhibitors: compound fluorescence; 3.1% of 360,000 active; fluorescence intensity (test concentration not listed); compound autofluorescence counterscreen, microsphere flow cytometry; stronger effect = higher value;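 active means at least 3 SD above the mean of all compounds, about 16000 in these data; inconclusive means too few beads counted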;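 further: 100 nL of 1 mM stock went into each well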
Mtb hypoxia rep growth: recorded beside Mtb hypoxia rep, whose call it bears; growth inhibition, %; measured here: M. tuberculosis growth (absorbance);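 0% = vehicle and 100% = reference antibiotic; read after six days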
The depositor's hits bear a star; ? = inconclusive; nt = no result given.

SMILES	Sa RN4220 lethal	PrP UTR inh	BJeLR viability	Mtb hypoxia rep	Mtb hypoxia rep growth	ugtP null kill	Autofluor counter
CCNc1nc(Oc2ccc(=O)[nH]n2)nc(SC)n1	2.9	-14	2	nt	nt	3	3101
CCOC(=O)C1(Cc2ccccc2)CCN(Cc2cnn(CC)c2)CC1	-0.2	-16	-4	14	-1	-1	2185
CC(C(=O)Nc1ccc(Cl)cc1Cl)N1C(=O)NC2(CCCC2)C1=O (centres undefined)	3.5	-20	-13	-6	3	0	2926
CCOC(=O)CNC(=O)CN1C(=O)CC(c2ccccc2)S(=O)(=O)c2ccccc21 (centres undefined)	0.8	-7	3	7	9	12	4147
O=C(COC(=O)c1cc[n+]([O-])cc1)Nc1ccccc1Sc1ccccc1	4.4	-12	8	10	6	15	4184
Cc1noc(C)c1COC(=O)c1cccc(S(=O)(=O)N2CCCCCC2)c1	9.4	0	nt	10	1	21	3532
COc1ccc(C2=NS(=O)(=O)N(C)C(C(=O)N3CCc4ccccc4C3)=C2)cc1OC	5.6	-5	-6	nt	nt	13	5268
CCOc1ccc2[nH]c(=O)c(CN(CCCN3CCOCC3)Cc3nnnn3Cc3ccc(OC)cc3)cc2c1	0.6	-25	8	10	5	6	5040
Cc1ccc(Sc2ccc(S(=O)(=O)Nc3ccc(CC(=O)O)cc3)cc2)cc1C	1.2	nt	nt	3	4	-9	?
CCN(CC)Cc1c(C(=O)NN=Cc2ccc(OCc3ccccc3C)cc2)nnn1-c1nonc1N	5.8	nt	nt	1	1	6	nt
Cc1ccc(C2C3=C(CCCC3=O)N=C3c4ccccc4C(=O)C32)cc1 (centres undefined)	4.4	0	13	12	4	6	1990
CCOC(=O)c1sc(NC(=O)CN2C(=O)NC3(CCCCCCC3)C2=O)c(C(=O)OCC)c1C	5.3	8	-10	11	9	-3	6198
C=CCN(C(=O)CNC(=O)c1ccco1)C(C(=O)NC1CCCCC1)c1ccc(OC)cc1 (centres undefined)	-1.8	-9	-6	nt	nt	5	4027
CCOC(=O)c1c(NC(=O)COc2cccc3c2CCN(C)C3=O)sc2c1CCC2	13	-12	-8	nt	nt	-24	2307
COCCNc1nc(SCC(=O)N2CCN(c3ccccc3)CC2)nc2ccccc12	0.0	-22	-6	2	2	2	10816
OC1CC2CCC(C1)N2CCCN1c2ccccc2Sc2ccc(Cl)cc21 (centres undefined)	-9.7	-28	nt	nt	nt	0	3672
COc1ccccc1/C=N/N1C(=O)c2cccc3cccc(c23)C1=O	nt	-3	1	nt	nt	nt	4716
CC(C)(C)CC(=O)Nc1ccc(C(N)=O)cc1	6.9	-7	-5	12	6	7	7888
Cc1ccccc1CNC(=O)C1CCN(c2nnc(N3CCCC3=O)s2)CC1	nt	-7	-8	nt	nt	nt	4807
Cc1c(C)c2ccc(OCC(=O)Nc3cccnc3)cc2oc1=O	2.5	-13	3	8	0	-4	6176
C/C(=N\NC(=S)NC(C)C)c1ccc(-n2ccnc2)cc1	nt	-18	-3	nt	nt	nt	2500
Cc1ccc(S(=O)(=O)N2CCC[C@H]2C(=O)OCC(=O)N2c3ccccc3NC(=O)C2(C)C)cc1	-4.0	-15	nt	11	6	-4	4009
COc1ccc(CC(=O)NNC(=S)Nc2ccccc2)cc1Br	0.6	-11	2	nt	nt	0	2387
CCOC(=O)/C(C#N)=C\c1cc(C)n(-c2ccccc2)c1C	4.4	8	0	4	6	23	7373
C[C@@H]1CN([C@H](C)CO)C(=O)c2cc(NS(=O)(=O)c3cccs3)ccc2O[C@H]1CN(C)Cc1ccccc1	-3.6	-10	nt	4	2	-2	4246
Cc1cc(C(=O)O)cc(Br)c1N	2.8	-36	1	5	4	0	4818
CCNc1nc(NCC)nc(NC(N)=S)n1	6.9	-23	5	13	5	2	3443
Cc1ccc(NS(=O)(=O)c2c(C)[nH]c(=O)[nH]c2=O)c(Br)c1	3.6	-17	2	26	6	8	4249
CCC/C(=N\NC(=O)CCC(=O)NCc1ccccc1)c1ccccc1	nt	-12	5	nt	nt	nt	4178
COc1nc2c(s1)C(=O)NCCC2	0.8	-4	-5	nt	nt	3	2605
O=C(COc1ccccc1)NC1CCCCC1	5.5	-5	10	nt	nt	4	1960
COc1ccc(C2NN=C(c3ccc(C)cc3)S2)cc1 (centres undefined)	nt	-79	10	nt	nt	nt	3715
Cc1c(NC(=O)COc2ncnc3ccccc23)c(=O)n(-c2ccccc2)n1C	-1.6	-16	1	nt	nt	0	4793
Cn1c(=O)c2c(nc(CN3CCOCC3)n2CC(=O)c2ccccc2)n(C)c1=O	-1.5	-21	9	nt	nt	-1	2688
COc1cccc(/C=C/C(=O)NCc2ccc3c(c2)OCO3)c1	1.1	36	4	-3	5	-3	3099
COc1ccc(NC(=O)C2CCCC2)cn1	1.2	5	1	3	0	6	4781

Brought forward from above: two entries; new compounds follow.
SMILES	Sa RN4220 lethal	PrP UTR inh	BJeLR viability	Mtb hypoxia rep	Mtb hypoxia rep growth	ugtP null kill	Autofluor counter
COc1cccc(/C=C/C(=O)NCc2ccc3c(c2)OCO3)c1	1.1	36	4	-3	5	-3	3099
COc1ccc(NC(=O)C2CCCC2)cn1	1.2	5	1	3	0	6	4781
CC(C)(C)P(=O)(c1ccncc1)N1CCCC1 (centres undefined)	2.3	-8	-7	4	-2	-2	11019
CCOC(=O)CCC(=O)NNC(=O)c1ccc(NC(=O)c2ccccc2)cc1	0.7	-16	-4	18	11	0	4011
CC(=O)NC(CCS(C)(=O)=O)C(=O)Nc1ccc2c(c1)OCCO2 (centres undefined)	-1.9	-38	-2	4	3	1	11048
COc1ccc(/C=C(\NC(=O)c2ccccc2Cl)C(=O)NCCCC(=O)O)cc1	3.2	4	1	9	12	14	4414
Nc1c(Cl)cnn(-c2ccccc2)c1=O	3.1	nt	7	0	-5	13	3691
O=C(CNC(=O)c1ccc(S(=O)(=O)N2CCCC2)cc1)N/N=C/c1c(Cl)cccc1Cl	nt	-32	13	nt	nt	nt	2352
O=C(NN=Cc1c(Cl)cccc1Cl)c1ccc(-n2cnnn2)cc1	5.6	nt	nt	7	-4	-2	nt
CCOc1ccc(-c2nc(CN3CCCCC3CCn3cccn3)c(C)o2)cc1 (centres undefined)	0.9	-8	-4	0	0	2	5646
C/C(=N\NC(=O)c1ccncc1)c1cccs1	nt	-57	4	nt	nt	nt	4336
COc1ccc(CCC(=O)Nc2ccc(Cn3ccnc3)cc2)cc1	1.8	11	3	4	2	-1	4211
O=C(CNC(=O)c1ccccc1)OCC(=O)c1c[nH]c2ccccc12	0.0	-14	nt	1	3	-5	3690
Cc1ccc(N2C(=O)N(CC(=O)c3cc(C)ccc3C)C(=O)C2C)cc1 (centres undefined)	5.3	-16	-7	5	10	-5	10055
O=C(O)CCc1ccc(-c2ccc(Cl)cc2)n1Cc1ccco1	0.9	-19	2	7	4	32	10033
Cc1ccccc1N=C/C=C1\N(C)c2ccccc2C1(C)C	-3.6	-20	-18	-1	-1	-5	7319
COc1ccc(OC)c(NC(=O)Cn2cc(C(=O)c3ccco3)c3ccccc32)c1	4.6	-6	3	12	11	-7	6394
COc1cc2c(c(OC)c1OC)-c1c(cc3c(c1O)OCO3)CC(C)C(C)C2 (centres undefined)	5.4	nt	nt	4	3	-29	nt
C=CCNC(=O)c1c2c(nc3ccccc13)-c1ccccc1CC2	-1.9	-33	-9	5	9	9	5411
Cc1ccc2nc3c(cc(C(=O)NC4CCCC4)c(=N)n3C3CCCCC3)c(=O)n2c1	1.7	-20	-1	1	10	1	5250
Nc1ccc(N2CCOCC2)c(S(=O)(=O)Nc2cc(Cl)ccc2Cl)c1	-7.4	-4	4	6	6	16	4044
O=C(N/N=C/c1ccccc1)C(O)c1ccccc1 (centres undefined)	nt	-1	-6	nt	nt	nt	2897
NS(=O)(=O)c1ccc(NC(=O)COC(=O)C2CC(=O)N(Cc3ccccc3)C2)cc1 (centres undefined)	8.3	2	6	4	3	3	4132
O=[N+]([O-])c1ccc2nc(-c3ccccc3)cc(-c3ccccc3)c2c1	-0.9	-16	-11	-3	-1	-8	2036
CCOc1ccc(C(=O)Nc2ccc(C(=O)N3CCOCC3)cc2)c(OCC)c1	2.9	-30	4	4	8	9	6125
Cc1cc(C(=O)N[C@@H](c2ccccc2)[C@]2(C)C[C@H]2[C@@H](C)C(=O)Nc2ccc3ccccc3c2)no1	nt	-17	-7	nt	nt	nt	3895

Reprinted from the part before: five compounds; new compounds follow.
SMILES	Sa RN4220 lethal	PrP UTR inh	BJeLR viability	Mtb hypoxia rep	Mtb hypoxia rep growth	ugtP null kill	Autofluor counter
O=C(N/N=C/c1ccccc1)C(O)c1ccccc1 (centres undefined)	nt	-1	-6	nt	nt	nt	2897
NS(=O)(=O)c1ccc(NC(=O)COC(=O)C2CC(=O)N(Cc3ccccc3)C2)cc1 (centres undefined)	8.3	2	6	4	3	3	4132
O=[N+]([O-])c1ccc2nc(-c3ccccc3)cc(-c3ccccc3)c2c1	-0.9	-16	-11	-3	-1	-8	2036
CCOc1ccc(C(=O)Nc2ccc(C(=O)N3CCOCC3)cc2)c(OCC)c1	2.9	-30	4	4	8	9	6125
Cc1cc(C(=O)N[C@@H](c2ccccc2)[C@]2(C)C[C@H]2[C@@H](C)C(=O)Nc2ccc3ccccc3c2)no1	nt	-17	-7	nt	nt	nt	3895
COc1cc2c(=O)n(CC3CCCO3)c(=O)n(CC(=O)Nc3ccccc3)c2cc1OC (centres undefined)	6.1	-18	1	4	5	15	5257
COc1ccc(OC)c(NC(=O)Cc2csc(NC(=O)Nc3ccccc3OC)n2)c1	-0.7	-14	-2	4	6	14	4468
Cc1ccc(C(=O)Nc2cccc(C(=O)N3CCN(C)CC3)c2)cc1	1.0	-33	-20	10	5	6	8113
CN(Cc1ccccc1)C(=O)c1oc(=O)c2ccccc2c1-c1ccccc1	-0.6	-27	10	10	7	-2	9983
CN1C(=O)N(C)C2(c3ccccc3)N(C(C)(C)C)C(=O)NC12c1ccccc1 (centres undefined)	6.8	-15	4	1	4	-8	2109
O=C1CSC(c2ccccn2)N1c1ccc(F)cc1F (centres undefined)	7.8	-7	9	11	1	5	3941
CC1CCCC(NC(=O)CN2C(=O)COc3ccccc32)C1C (centres undefined)	0.5	-10	0	6	0	-1	5717
Cc1ccc(NC2=CC(=O)C(=O)c3ccccc32)c(C)c1	12	-10	nt	11	7	0	6290
Cc1cc(C)n(N=Cc2ccc(C(C)C)cc2)c(=O)c1C#N	-1.7	nt	nt	-2	3	1	nt
Cn1c(C(=O)N2CCC(C(N)=O)CC2)cc2cc(Cl)ccc21	4.7	0	0	17	8	1	?
Cn1c(=O)c2sccc2n(CC(=O)NCCC2=CCCCC2)c1=O	nt	-2	2	nt	nt	nt	3283
O=C(COc1ccc(S(=O)(=O)Nc2cccc(C(F)(F)F)c2)cc1)N1CCOCC1	7.7	-13	2	-7	-11	5	4568
Cn1cccc1C=Nn1c(-c2ccco2)n[nH]c1=S	-0.3	nt	nt	1	-7	-8	nt
CS(=O)c1ccc(-n2c(=O)n(Cc3ccccc3)c(=O)c3[nH]cnc32)cc1 (centres undefined)	3.5	22	-2	6	5	4	3487
Cc1ccc2c(c1)C1NC(=S)NC(C)(O2)C1C(=O)Nc1ccc(Cl)cc1 (centres undefined)	0.6	-23	-5	5	7	6	7661
CCOC(=O)CNC(=O)c1ccccc1Br	2.5	-38	-3	nt	nt	-5	2430
C=CCNC(=O)C1CC2c3ccccc3C1c1ccccc12 (centres undefined)	3.3	-10	2	9	17	8	nt
CCCCCCn1c(N2CCC(C(N)=O)CC2)nc2c1c(=O)[nH]c(=O)n2C	1.2	-2	6	nt	nt	5	4439
COc1cc(/C=N/NC(=O)[C@H](Cc2c[nH]c3ccccc23)NC(=O)OCC(C)C)cc([N+](=O)[O-])c1O	nt	-14	-2	nt	nt	nt	2573
CCC1(C)Cc2ccccc2-c2nc[nH]c(=O)c21 (centres undefined)	-2.5	-54	-4	-2	-4	-9	3923
O=C(COC(=O)CCc1ccc(S(=O)(=O)N2CCCCC2)cc1)Nc1ccc2c(c1)OCO2	5.4	-30	4	9	5	1	2854
CCOC(=O)c1ccc(-n2c(C)nc3c(cnn3-c3ccc(Cl)cc3)c2=O)cc1	-0.9	5	0	-5	-1	-4	3315
c1ccc(CSc2nnc(SCc3ccccn3)s2)nc1	1.4	-16	8	10	-2	0	11155
CCOC(=O)CNC(=O)c1sc(NC(=O)c2ccccc2F)nc1C	7.2	-68	10	13	15	6	11362
CCCNC(=O)c1cc(OC)c(OC)cc1[N+](=O)[O-]	4.0	2	-12	1	3	4	24245*
